Source: PubChem (Center for Chemical Genomics, University of Michigan)
TAR Tat displ = HIV-1 TAR-Tat binding disruption | HIV-1 TAR RNA, Tat peptide displacement FRET; hits give high values | z-score (concentration not given with the values) | 100,000 compounds, 0.6% hits;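 also: score is relative to mean and SD of negative controls; some compounds called inactive have numbers as strong as hits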
CDC25B CDK2 inh = human CDC25B-CDK2/CyclinA binding inhibition. 94,000 compounds, 0.72% hits. HTRF CDC25B-CDK2/CyclinA binding, anti-His/anti-Flag; hits give high values. z-score (test concentration not listed). P30305+P24941. AID 1259370;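 also: score is relative to mean and SD of negative controls; strong numbers were not always called active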
Starred values were filed as active, the others as inactive; · = not tested or not shown.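 The calls were made as follows: active = z-score from 3 up in half or more of its runs; inactive = the rest.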

| SMILES | TAR Tat displ | CDC25B CDK2 inh |
| --- | --- | --- |
| O=C(Nc1ccc2oc(-c3ccc(Br)cc3)nc2c1)c1cccnc1 | -0.06 | -1.96 |
| O=C(Nc1ccc(F)cc1F)c1ccc(N2CCSc3ncccc32)s1 | 1.21 | · |
| COc1ccc(C(=O)c2c(N)c(-c3nc(-c4ccccc4)cs3)c3ccccn23)cc1 | 3.62 | -0.57 |
| O=C(O)C1CCCCC1C(=O)OCCCCOC(=O)C1CCCCC1C(=O)O (configuration not stated) | · | -0.46 |
| COc1cc(OC)c(NC(=O)C2=Cc3sc(C)c(C)c3CS2)cc1Cl | -0.5 | · |
| O=C(CC1(O)C(=O)N(Cc2ccccc2)c2ccccc21)c1cccs1 (configuration not stated) | · | -1.12 |
| COc1ccc(C(O)(c2ccccc2)C2CC2)cc1 (configuration not stated) | · | -1.76 |
| C#CCCCCCCCCCCCC(O)CC(O)CO (configuration not stated) | 1.56 | · |
| CC1(C)CC(=O)C2=C(C1)Nc1[nH]n(-c3ccccc3)c(=O)c1C2c1ccc2c(c1)OCO2 (configuration not stated) | · | -0.9 |
| CSc1cccc(NC(=O)c2ncoc2-c2ccco2)c1 | -1.79 | · |
| COC(=O)c1c(C)n(S(C)(=O)=O)c2ccc(N(C(=O)c3cccs3)S(C)(=O)=O)cc12 | -0.05 | -1.71 |
| O=C(COCc1cc(-c2ccco2)on1)N1CCN(c2cccc(Cl)c2)CC1 | 0.1 | · |
| O=C(O)c1cccc(NC(=O)c2ccc3c(c2)C(=O)N(c2nccs2)C3=O)c1 | · | -1.47 |
| Cc1ccc2nc3ccc(NCc4cccs4)nn3c(=O)c2c1 | 1.58 | 0.63 |
| CCOC(=O)Cc1csc2nc(C(F)(F)F)nc(=O)n12 | · | -1.52 |
| O=C(NCc1ccccc1)c1cc2n(n1)C(C(F)(F)F)CC(c1ccc3c(c1)OCO3)N2 (configuration not stated) | 2.34 | · |
| Cc1ccc(-c2nnc3c4ccccc4c(C)nn23)cc1S(=O)(=O)N(C)C1CCCCC1 | 1.33 | -1.53 |
| CCOC(=O)C1CCCN(C(=O)c2ccc(N3CCOc4ccc(Cl)cc43)s2)C1 (configuration not stated) | 0.66 | · |
| CC(C)CC(C(=O)N1CCN(C)CC1)N1Cc2ccccc2C1=O (configuration not stated) | 2.31 | · |
| CC(C)CCNC(=O)C1(C)CCC(=O)N1CCCN1CCCCC1 (configuration not stated) | 0.44 | -0.39 |
| Fc1ccccc1/C=C/c1nn2c(-c3cccnc3)nnc2s1 | -0.6 | 0.44 |
| CN1CCN(CCCNC(=O)Nc2ccc(Cl)cc2)CC1 | 1.06 | -1.67 |
| Cc1noc(C)c1S(=O)(=O)N1CCCC1C(=O)NC1CCC(C)CC1 (configuration not stated) | 1.82 | · |
| CC1C(C#N)=C(SCC(=O)Nc2ccc(Br)cc2)NC2=C1C(=O)CC(C)(C)C2 (configuration not stated) | -0.36 | -1.27 |
| Cc1nc(Nc2ccccc2)nc2c1ncn2-c1ccccc1 | 0.63 | 0.15 |
| O=C(C1CCN(S(=O)(=O)N2CCOCC2)CC1)N1CCN(Cc2noc3ccccc23)CC1 | 0.98 | · |
| O=C(Nc1ccc2nc(SCC(=O)N3CCOCC3)sc2c1)c1cccs1 | 2.44 | -0.69 |
| O=C(Nc1ccccc1Cl)c1cnc2sc3c(n2c1=O)CCCC3 | 1.52 | · |
| CCOc1cc(-c2noc(-c3ccco3)n2)ccc1OC | -0.96 | -1.6 |
| CCOC(=O)c1cc(S(=O)(=O)Nc2cccc(SC)c2)cn1C | 0.72 | -2.83 |

Shown with each value named: part of the list above
structure: COc1ccc(C(=O)c2c(N)c(-c3nc(-c4ccccc4)cs3)c3ccccn23)cc1
- TAR Tat displ: 3.62
- CDC25B CDK2 inh: -0.57
structure: O=C(O)C1CCCCC1C(=O)OCCCCOC(=O)C1CCCCC1C(=O)O (configuration not stated)
- TAR Tat displ: ·
- CDC25B CDK2 inh: -0.46
structure: COc1cc(OC)c(NC(=O)C2=Cc3sc(C)c(C)c3CS2)cc1Cl
- TAR Tat displ: -0.5
- CDC25B CDK2 inh: ·
structure: O=C(CC1(O)C(=O)N(Cc2ccccc2)c2ccccc21)c1cccs1 (configuration not stated)
- TAR Tat displ: ·
- CDC25B CDK2 inh: -1.12

Next section
| SMILES | TAR Tat displ | CDC25B CDK2 inh |
| --- | --- | --- |
| Cc1ccc(Nc2nc(NCCN(C)C)nc3c2cnn3C)cc1 | 1.47 | · |
| c1cn2cc(-c3ccc4c(c3)OCO4)nc2s1 | · | -0.68 |
| O=C1Sc2ccc(S(=O)(=O)Nc3ccc(F)cc3)c3cccc1c23 | 1.46 | 0.67 |
| Cc1ccc(/C(O)=C2/C(=O)C(=O)N(CC3CCCO3)C23C(=O)N(C)c2ccccc23)cc1F (configuration not stated) | 16.2* | 0.18 |
| NC(=O)C1CCN(C(=O)CCCCCn2c(=O)[nH]c3ccsc3c2=O)CC1 | -1.66 | 0.79 |
| COc1cccc2c1OCC2=O | · | -0.76 |
| Cc1ccc(OCc2cc(=O)n3oc(C)cc3n2)cc1 | 1.06 | -2.99 |
| CCCc1cc(=O)n2[nH]c(-c3ccco3)nc2n1 | 1.27 | · |
| COc1ccc(NS(=O)(=O)c2c(C)[nH]c(=O)[nH]c2=O)cc1 | 0.46 | · |
| CSc1ncc2c(=O)n(CC(=O)Nc3ccc(Br)cc3)cnc2n1 | 1.38 | · |

Additional structures.
Below each compound – TAR Tat displ	CDC25B CDK2 inh
O=c1c2nccnc2nc(SCc2ccccc2F)n1Cc1ccccc1Cl
  1.02	-0.87
CCC1(C)Cc2c(sc3nc(SC)nc(N4CCNCC4)c23)CO1 (configuration not stated)
  0.35	0.23
O=c1c2c(-c3ccc(Cl)cc3)csc2nc2c3ccccc3c(N3CCN(CCO)CC3)nn12
  -0.66	2.54
COc1ccc(NC(=O)c2c(N3CCCC3=O)c3cc(F)ccc3n2C)c(OC)c1
  0.98	·
C/C(=N\NC(=O)/C=C/C(=O)O)c1ccc([N+](=O)[O-])cc1
  ·	-0.91
Cc1cc(Cl)cc(Cl)c1OCC(=O)Nc1ccc2c(c1)C(=O)c1ccccc1C2=O
  ·	-2.07
Cc1ccc(Cn2c(OCCN(C)C)nc3c2c(=O)n(C)c(=O)n3C)cc1
  -0.91	-0.44
Cc1ccc2c(c1)-n1c(nn(Cc3ccccc3)c1=O)CO2
  1.13	-0.02
COc1ccc2c(c1)[C@@H]1C=CC[C@@H]1[C@H](c1ccc(C(=O)O)cc1)N2
  14.3*	4.24
O=C(CSc1nnc(-c2cccs2)o1)Nc1ccc(F)cc1
  2.69	-1.82
Cc1nc(N2CCCC(C(=O)NCc3cccs3)C2)c2c(C)noc2n1 (configuration not stated)
  -0.04	·
COc1ccc(C)cc1NS(=O)(=O)c1ccc(-c2cc(C)[nH]n2)s1
  0.03	·
O=C1CN(C(=O)Cc2ccc(F)cc2)C(c2ccc(F)cc2)c2cc(Br)ccc2N1 (configuration not stated)
  ·	-0.51
COC(=O)c1sccc1N/C=C(\C#N)S(=O)(=O)c1cccs1
  ·	-0.75
Cc1sc2ncn(CC(=O)NCCCC(=O)Nc3ccc4c(c3)OCCO4)c(=O)c2c1C
  ·	-0.18
Cc1ccc(Nc2nc(NCCCO)nc3c2cnn3C)cc1
  1.36	·
Cc1ccc(Cn2c(=O)c3ccc(C(=O)NC(C)C)cc3n3c(=O)[nH]nc23)cc1
  -0.38	-1.35
O=C(Oc1cccc2cccnc12)c1ccco1
  0.59	-1.37
COc1ccccc1NC(=O)c1ccc(C#Cc2ccccc2)o1
  ·	0.09
Cc1cc(C)c2c(c1)-c1cc(C)nn1C(c1ccc(O)c(O)c1)N2 (configuration not stated)
  1.68	-3.05
CC1=C(C(=O)OC2CCCC2)C(c2cccc3ccccc23)C2=C(CCCC2=O)N1 (configuration not stated)
  -0.45	-0.81
COc1ccc(NS(=O)(=O)c2ccc(NS(=O)(=O)c3ccccc3)cc2)nn1
  0.81	-1.61
Cc1ccc(-c2cnc(C3CC3)o2)cc1S(=O)(=O)N1CCc2ccccc21
  -1.27	·
CSc1nnc(-c2csc(S(=O)(=O)Nc3cccc(C(F)(F)F)c3)c2)n1C
  ·	0.58
Cc1nnsc1C(=O)N1CCN(C(=O)C2COc3ccccc3O2)CC1 (configuration not stated)
  ·	-1.46
COc1ccc(S(=O)(=O)n2nc(C)c(S(=O)(=O)N(C)c3ccccc3)c2C)cc1C
  0.23	·
Cc1[nH]nc(-c2ccc(S(=O)(=O)Nc3ccc(Cl)cc3F)s2)c1C
  -0.23	·
O=C(NC1CCCC1)C1c2c(ccc3ccccc23)OCC(=O)N1c1ccccc1Cl (configuration not stated)
  2.61	·
O=C(CSc1nc2ccsc2c(=O)n1Cc1ccccc1)N1CCCC1
  ·	-0.82
Cc1ccc2scc(N3CCCC(C)C3)c(=O)c2c1 (configuration not stated)
  0.78	·
C#CCOc1nc2c(c(=O)n(C)c(=O)n2C)n1Cc1ccccc1
  -0.35	-1.05
Cc1ccc(-c2csc(-n3[nH]c(C)c(CC(=O)N4CCCC4)c3=O)n2)cc1
  1.49	-4.55
CCOCCSc1nc(N)c2c3c(sc2n1)COC(C)(C)C3
  1.38	0.21
O=c1ccnc(SCc2ccc(Br)cc2)[nH]1
  -1.51	0.18
O=C(O)CCCCCCCCCCCCC1C=CCC1 (configuration not stated)
  3.5	·
Nc1nc(CN2CCN(c3ccccn3)CC2)nc(Nc2ccc(Oc3ccccc3)cc2)n1
  0.33	·
CCN1CCC2(CC1)OC(=O)C(C)=C2C(=O)Nc1ccc(F)cc1F
  -0.06	·
Cn1c(=O)[nH]c(=O)c2c1nc(N1CCCC1)n2CCSc1ncccn1
  ·	0.38
O=c1cc(CSCc2ccccc2)nc2sc3c(n12)CCCC3
  1.4	-0.86
CN(C)c1ccsc1C(=O)NNS(=O)(=O)c1ccc(Cl)cc1
  ·	0.11
CCCCc1nnc2sc(NC(=O)CCC)nn12
  0.28	-0.88
O=S(=O)(Nc1cccc(-c2ccc(N3CCOCC3)nn2)c1)c1cccs1
  1.09	·
CCOC(=O)c1c(C)oc2ncnc(NC(C)C(=O)OC)c12 (configuration not stated)
  0.64	·
c1cc[n+]([B-]23CC4CC(CC(C4)C2)C3)cc1
  ·	-3.62
Cn1nnnc1SCCCNCc1ccco1
  2.22	-0.91
S=C1SCN(Cc2cccnc2)CN1Cc1ccccc1
  1.93	-2.73
CC(=O)N1N=C(c2cccs2)OC12CCCC2
  ·	-0.46
CCC(C)NC(=O)CCCc1nnc2n(CC(C)C)c(=O)c3sccc3n12 (configuration not stated)
  0.53	·
COc1ccc(Cc2n[nH]c(=O)o2)cc1OC
  ·	-1.47
CCOc1ccc(S(=O)(=O)N(C(=O)C(C)C)c2ccc3oc(=O)sc3c2)cc1
  0.77	-1.46
C=CCN1C(=O)C(O)(CC(=O)c2ccc(C)cc2C)c2ccccc21 (configuration not stated)
  -0.31	0.45
CCC(C)c1ccc(N2C(=O)c3c(C)nc4ccccc4c3C2=O)cc1 (configuration not stated)
  0.96	-1.05
CC1=C(c2ccc(C)cc2)S(=O)(=O)NC1=NCCCN(Cc1ccccc1)C(C)C
  -1.77	-1.77
Cc1cc(C(=O)Nc2ccc(CN3CCS(=O)(=O)CC3)cc2)no1
  ·	-0.41
CC(C)CCNC(=O)c1csc2c1CCCC2
  0.98	-1.73
Cc1ccc(C)c(OCc2cc(=O)n3ccsc3n2)c1
  -0.09	-0.98
CCS(=O)(=O)c1ccc(-c2cccc(NS(C)(=O)=O)c2)nn1
  0.36	·
COCCNc1nc2ccc(C)cc2[nH]1
  2.4	-2.19
CCc1ccc(S(=O)(=O)N2CCN(c3c(C)n(C)c(=O)n(C)c3=O)CC2)cc1
  0.61	·
CC1=C(C(=O)N2CCN(c3ccccc3)CC2)C2(CCN(S(C)(=O)=O)CC2)OC1=O
  0.32	·

Further entries follow.
Below each compound – TAR Tat displ	CDC25B CDK2 inh
CN1CCN(C(=O)CCc2nnc3ccc(N4CCCC4)nn23)CC1
  0.54	·
CCOC(=O)c1c[nH]c2c(OC)cc3c4ccccc4oc3c2c1=O
  ·	-0.83
CCCc1cc(=O)n2nc(N(C)CC(=O)NC3CCCc4ccccc43)sc2n1 (configuration not stated)
  1.79	-1.58
COc1ccc(C)cc1-n1nnc(-c2nc(-c3ccc(Br)cc3)no2)c1N
  0.41	·
N#Cc1ccc(C#CCOC(=O)c2ccc(C(F)(F)F)cc2)cc1
  ·	-0.26
COc1ccc(CCNc2nc(Cl)nc(NC(C)(C)CO)n2)cc1OC
  0.14	-0.84
Cn1nc(C(=O)N2CCN(c3ccccc3)CC2)c2c1-c1ccccc1S(=O)(=O)C2
  1.17	-1.05
CN(Cc1ccco1)S(=O)(=O)c1ccc(CN2C(=O)c3cccnc3C2=O)cc1
  0.97	·
c1ccc(-c2nc3ccccc3c3nnc(SCc4ccncc4)n23)cc1
  0.83	·
CCOCCCn1c(=O)c(C#N)cc2c(=O)n3cccc(C)c3nc21
  -0.28	-0.24
COc1ccc(NS(=O)(=O)N(C)C)c(OC)c1
  0.75	-0.28
CCOc1ccc(S(=O)(=O)Nc2cc(-c3cn4ccc(C)cc4n3)ccc2C)cc1
  1.46	-1.11
O=S(=O)(Nc1cc(C(F)(F)F)cc(C(F)(F)F)c1)c1cccc2nsnc12
  ·	-0.82
COc1ccc(OC)c(S(=O)(=O)N2CCN(c3cc(N4CCCCC4)nc(C)n3)CC2)c1
  1.13	0.44
CCOC(=O)c1c(C)oc2ncnc(NCCCN(CC)CC)c12
  -0.15	·
O=c1cc(COc2ccccc2)nc2sccn12
  -0.02	-1.33

4 structures already listed, arranged by formula weight, high to low:
Below each compound – TAR Tat displ	CDC25B CDK2 inh
COc1ccc(OC)c(S(=O)(=O)N2CCN(c3cc(N4CCCCC4)nc(C)n3)CC2)c1
  1.13	0.44
COc1ccc(C)cc1-n1nnc(-c2nc(-c3ccc(Br)cc3)no2)c1N
  0.41	·
CN1CCN(C(=O)CCc2nnc3ccc(N4CCCC4)nn23)CC1
  0.54	·
N#Cc1ccc(C#CCOC(=O)c2ccc(C(F)(F)F)cc2)cc1
  ·	-0.26
